VDR inhibitor – blocks the human vitamin D receptor; VDR-SRC2-3 peptide fluorescence polarization, 2 h; Potency, µM, for inactives: max response, negative = inhibition, actives largely listed as inhibitors; hit rate 0.93% among 400,000; P11473; active means well fitted inhibition curve with a large enough effect; inconclusive means small, poorly fitted or top-dose-only effect, or another doubt; inactive means no such curve, though single readings can be large or run the other way; further: series mostly up to about 120 µM
Target sequence (P11473 whole entry, looked up): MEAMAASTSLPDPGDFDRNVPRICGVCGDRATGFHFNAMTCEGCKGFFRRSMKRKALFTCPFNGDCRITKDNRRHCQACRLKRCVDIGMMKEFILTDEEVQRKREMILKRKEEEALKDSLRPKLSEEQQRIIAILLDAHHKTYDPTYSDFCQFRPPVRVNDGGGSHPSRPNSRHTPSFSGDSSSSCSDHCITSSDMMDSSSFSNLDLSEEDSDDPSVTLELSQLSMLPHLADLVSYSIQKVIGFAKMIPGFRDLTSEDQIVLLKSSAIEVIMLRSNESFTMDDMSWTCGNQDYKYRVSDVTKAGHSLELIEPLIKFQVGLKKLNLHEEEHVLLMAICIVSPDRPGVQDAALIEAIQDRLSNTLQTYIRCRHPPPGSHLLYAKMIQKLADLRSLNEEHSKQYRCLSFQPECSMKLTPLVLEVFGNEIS
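Signal is fluorescence polarization, reporting how far test compounds block the interaction of VDR with the SRC2-3 coregulator peptide after a 2 h room-temperature incubation.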
* marks the source's active call; other numbers are inactive results; & = joins results of further samples; [ ] = remark or other dose. On the % scale 0 is the no-effect control and ±100 the full control effect; potency means the concentration at half of the fitted maximal effect.

Screening CCn1c(/C=C/Nc2ccccc2)[n+](CC)c2cc(Cl)c(Cl)cc21 returned VDR inhibitor -7.3%.
CN1CCN(C(=O)C2=C[C@@H](c3coc4ccccc4c3=O)C[C@@H](OCc3ccc(CO)cc3)O2)CC1 was read as VDR inhibitor 11.3%.
`CCOCCn1ccc2c(OCC(=O)NCc3ccc(C)cc3)cccc2c1=O` gave VDR inhibitor 10.6%.
`CCN1CCN(c2ncnc3c2cnn3-c2ccc(C)cc2)CC1` gave VDR inhibitor -4.8%.
Screening C/C=C/c1ccc(OCCCCOc2ccccc2C(C)=O)c(OC)c1 returned VDR inhibitor -8.4%.
Screening Cc1ccc(S(=O)(=O)N2CCCCC2)cc1NC(=O)COC(=O)c1ccc2c(c1)OCO2 returned VDR inhibitor -0.4%.
Screening CCOC(=O)c1ccccc1NC(=O)COC(=O)c1cc([N+](=O)[O-])ccc1N1CCOCC1 returned VDR inhibitor inconclusive.
Screening COc1cc(OC)cc(C(=O)Nc2nnc(SCC(=O)NCC3CCCO3)s2)c1 (stereo not drawn) returned VDR inhibitor -6.3%.
For COc1ccc(NC(=O)CSc2nnc(-c3cccnc3)n2C)cc1 the results were VDR inhibitor -16.4%.
Screening COc1ccc(Br)c2oc(S)cc(=O)c12 returned VDR inhibitor inconclusive.
`Cc1cc(C)cc(OCC(=O)NC(C)c2ccccc2)c1` (stereo not drawn) gave VDR inhibitor inconclusive.
Fc1ccc(Nc2ncnc3sc4c(c23)CCC4)cc1F was read as VDR inhibitor -1.6%.

Continued; the last three above are carried over.
Screening COc1ccc(Br)c2oc(S)cc(=O)c12 returned VDR inhibitor inconclusive.
`Cc1cc(C)cc(OCC(=O)NC(C)c2ccccc2)c1` (stereo not drawn) gave VDR inhibitor inconclusive.
Fc1ccc(Nc2ncnc3sc4c(c23)CCC4)cc1F was read as VDR inhibitor -1.6%.
CC1CCN(C(=O)CCN2C(=O)/C(=C/c3cccs3)SC2=S)CC1 was read as VDR inhibitor 16.2%.
Cn1ncc2c(NNC(=O)c3ccc(O)cc3)ncnc21 was read as VDR inhibitor -8.3%.
`COc1cc(-c2nc(CN3CCN(c4ncccn4)CC3)c(C)o2)ccc1F` gave VDR inhibitor -15.5%.
`Cc1ccc2c(c1)N(C(=O)Nc1cccc3c1CCCC3)CC(C)O2` (stereo not drawn) gave VDR inhibitor -2.1%.
Screening CC1CCCC(C)N1C(=O)c1ccc2c(c1)S(=O)(=O)c1ccccc1C2=O (stereo not drawn) returned VDR inhibitor 7.8%.
Cc1ccc(N2CCN(C(=O)c3c(C)oc4ncnc(N5CCOCC5)c34)CC2)c(C)c1 was read as VDR inhibitor 6.8%.
Cc1cc(OCC(=O)NCC2(N3CCN(C)CC3)CCCCC2)cc(C)c1Cl was read as VDR inhibitor -0.2%.
Cc1cc(C(=O)Cn2cc([N+](=O)[O-])ccc2=O)c(C)n1CC1CCCO1 (stereo not drawn) was read as VDR inhibitor -14.2%.
CSC1=NCCN1S(=O)(=O)c1ccc(Cl)cc1 was read as VDR inhibitor -3.8%.
Screening Cc1nc(-c2ccc([N+](=O)[O-])cc2)sc1C(=O)O returned VDR inhibitor 8.4%.
For Nc1ccccc1-c1nnc(-c2ccccc2N)n1N the results were VDR inhibitor 12.5%.
Screening CCn1c(CN2CCN(C)CC2)nc2cc(NC(=O)c3ccc([N+](=O)[O-])cc3)ccc21 returned VDR inhibitor 9.5%.
Screening CCN(CC)S(=O)(=O)c1ccc(NC(=O)[C@H](CSCc2ccccc2)N2Cc3ccccc3C2=O)cc1 returned VDR inhibitor -9.8%.
Screening CCOc1ccc(S(=O)(=O)N2CCC(C(=O)N3CCOCC3)CC2)cc1Cl returned VDR inhibitor 14.6%.
For COC(=O)c1ccc(COC(=O)[C@@H]2CC(O)CN2S(=O)(=O)c2ccccc2[N+](=O)[O-])cc1 (stereo partly drawn) the results were VDR inhibitor 2.8%.
`O=S(=O)(Nc1ncccc1O)c1ccc(Cl)cc1` gave VDR inhibitor -14.9%.
For CC(OC(=O)CCCN=C1NS(=O)(=O)c2ccccc21)C(=O)N(C)c1ccccc1 (stereo not drawn) the results were VDR inhibitor -3.8%.
`COc1ccc(S(=O)(=O)Nc2c(NC3CCCCC3)c3ccccc3oc2=O)cc1` gave VDR inhibitor -17.0%.
Screening CCOC(=O)c1c(C=O)c(C)n(Cc2ccc(C)cc2)c1C returned VDR inhibitor -4.2%.
Screening O=S(=O)(c1ccc(S(=O)(=O)N2CCOCC2)cc1)N1CCCC1 returned VDR inhibitor 1.4%.
Screening O=S(=O)(Nc1cccc(-c2ccc(N3CCOCC3)nn2)c1)c1ccc(F)c(C(F)(F)F)c1 returned VDR inhibitor 3.7%.
For CS(=O)(=O)Nc1ccccc1C(=O)NC1CC2CCC1C2 (stereo not drawn) the results were VDR inhibitor 1.3%.
Screening O=C1NC[C@H](Cc2ccccc2)N(CC2CCN(CCC34CC5CC(CC(C5)C3)C4)CC2)C1=O returned VDR inhibitor -6.9%.
For Cc1c(C)n(Cc2ccccc2)c2ccc(C(=O)N3CCN(c4ccccc4)CC3)cc12 the results were VDR inhibitor 5.6%.
Screening O=C(Nc1nnc(Cc2ccc(Cl)cc2)s1)C1CCN(C(=O)c2ccco2)CC1 returned VDR inhibitor -4.3%.
Screening COc1ccc(N2CCN(S(=O)(=O)CC34CCC(CC3=O)C4(C)C)CC2)cc1 (stereo not drawn) returned VDR inhibitor 0.8%.
COc1cccc(NC(=O)Cn2c(=O)n(CCCCC(=O)NCCc3ccccc3)c(=O)c3ccccc32)c1 was read as VDR inhibitor -5.8%.
Screening CCN(CC)C(=O)Cn1cc(S(=O)(=O)CC(=O)Nc2ccc(F)cc2F)c2ccccc21 returned VDR inhibitor 5.0%.
For COC1=C[C@@H](C)C2CC3OC(=O)C[C@H]4C(C)=C(OC)C(=O)C([C@@]2(C)C1=O)[C@@]34C (stereo partly drawn) the results were VDR inhibitor 7.3%.
For Cc1cccc(N2CCN(Cc3ccc([N+](=O)[O-])o3)CC2)c1C the results were VDR inhibitor 2.1%.
COCCCNCC(O)COc1cccc2[nH]c(C)cc12 (stereo not drawn) was read as VDR inhibitor -6.1%.
`Cc1cc(C(=O)COc2ccccc2C(N)=O)c(C)n1C` gave VDR inhibitor -15.5%.
CCCCS(=O)(=O)/C=C\C=C/S(=O)(=O)CCCC was read as VDR inhibitor 35.5µM*.
`CCOC(=O)CSc1ncc(OC)c(Sc2ccc(OC)cc2)n1` gave VDR inhibitor 9.8%.
For Cc1c(Cl)c([N+](=O)[O-])nn1CCCC(=O)NC(C)c1ccccc1 (stereo not drawn) the results were VDR inhibitor 2.0%.
Screening CN(C)S(=O)(=O)c1cccc(C(=O)Nc2ccccc2N2CCCCC2)c1 returned VDR inhibitor -0.2%.

Among those listed so far, three have a furan ring, fused or not:
Cc1ccc(N2CCN(C(=O)c3c(C)oc4ncnc(N5CCOCC5)c34)CC2)c(C)c1 was read as VDR inhibitor 6.8%.
Screening O=C(Nc1nnc(Cc2ccc(Cl)cc2)s1)C1CCN(C(=O)c2ccco2)CC1 returned VDR inhibitor -4.3%.
For Cc1cccc(N2CCN(Cc3ccc([N+](=O)[O-])o3)CC2)c1C the results were VDR inhibitor 2.1%.

The results go on.
For O=C(N/N=C/c1cc2cc3c(cc2nc1Cl)OCCO3)c1ccccc1O the results were VDR inhibitor 5.6%.
For O=C(NNC(=O)C1CCN(Cc2ccccc2)CC1)c1cccc(Cl)c1 the results were VDR inhibitor 3.5%.
Screening CC(=O)Nc1cc(NC(C)=O)cc(-c2nc3ccccc3[nH]2)c1 returned VDR inhibitor -5.8%&-22.4%.
CC(=O)C1=C(C)NC(SCC(=O)c2cc(Cl)ccc2Cl)=C(C#N)C1c1ccco1 (stereo not drawn) was read as VDR inhibitor 36.5%[activator].
For CC(NC(=O)CSc1ncccn1)c1ccc(Cl)cc1Cl (stereo not drawn) the results were VDR inhibitor 13.7%.
Screening O=S(=O)(Nc1nccs1)c1cc(Cl)ccc1Cl returned VDR inhibitor -18.4%.
Screening COC(=O)c1ccc(NC(=S)N2CCN(Cc3cccc(C)c3)CC2)cc1 returned VDR inhibitor -5.8%.
`Cc1ccc(-c2nnn(CC(=O)N(CCO)C(C(=O)NC3CCCC3)c3ccc(F)cc3)n2)o1` (stereo not drawn) gave VDR inhibitor 5.4%.
`CC(C)OC(=O)Cn1c(-c2ccccc2)c(-c2ccccc2)nnc1=O` gave VDR inhibitor -13.0%.
For Cc1ccccc1OCCSc1nc2ccccc2n1CCC(=O)O the results were VDR inhibitor -10.0%.
O=C(COC(=O)C1CCC1)NC(=O)c1ccccc1 was read as VDR inhibitor 1.6%.
COC1OC2COC(c3ccccc3)OC2C(O)C1N (stereo not drawn) was read as VDR inhibitor 11.6%.
For CC(C)CC1c2[nH]c3ccccc3c2CCN1C(=O)CCC(=O)N(C)C (stereo not drawn) the results were VDR inhibitor -28.8%.
For CCSC1=C(C#N)C(c2ccccc2Cl)CC(=O)N1 (stereo not drawn) the results were VDR inhibitor -11.2%.
Cc1ccc(NC(=O)CN2CCc3cc4c(cc3C2C)OCCCO4)cc1 (stereo not drawn) was read as VDR inhibitor -11.9%.
For COc1ccc(NC(=O)CSc2nnc(NC(=O)c3ccco3)s2)cc1OC the results were VDR inhibitor 2.9%.
`CCc1nonc1NC(=O)c1oc2ccccc2c1C` gave VDR inhibitor 0.3%&0.6%.
Screening O=C(CCCN1C(=O)c2cccc3cccc(c23)C1=O)NCc1cccnc1 returned VDR inhibitor -10.0%.
For Nc1cccnc1Sc1ccc(Cl)cc1 the results were VDR inhibitor 14.7%.
CCc1ccc(Nc2cnn(-c3nc4ccccc4s3)c(=O)c2Cl)cc1 was read as VDR inhibitor -9.4%.
`O=C1c2cccc(NCCNCCO)c2C(=O)c2cccc(NCCNCCO)c21` gave VDR inhibitor inconclusive.
Screening CCn1nc(C)c(/C=N\NC(=O)c2ccc3c(c2)OCO3)c1C returned VDR inhibitor -10.7%.
For Cn1c(=O)[nH]c(=O)c2c1nc(N)n2Cc1ccccc1 the results were VDR inhibitor -7.9%.
For Cn1cnc2nc[nH]c2c1=S the results were VDR inhibitor -7.7%.
For COc1cc(NC(=O)CSc2ncnc3sc4c(c23)CCC(C)C4)c(C(=O)O)cc1OC (stereo not drawn) the results were VDR inhibitor -10.3%.
For Cc1occc1C(=O)N1CCN(S(C)(=O)=O)CC1 the results were VDR inhibitor 10.9%.
Screening COc1ccc(-n2c(C)nc(N)c2C(=O)c2ccccc2)cc1 returned VDR inhibitor 7.5%.
Screening CCOC(=O)c1c(N)sc2c(NC(C)=O)cccc12 returned VDR inhibitor -3.4%.
Screening COC(=O)[C@@H]1C[C@H]2CC[C@H](O)C[C@H]2N1Cc1ccc(C)s1 returned VDR inhibitor -10.9%.
For Nn1cnnc1SCC(=O)Nc1ccc2c(c1)OCO2 the results were VDR inhibitor -13.9%.
CC(=O)N1CC(C)c2scc(C)[n+]2-c2ccccc21 (stereo not drawn) was read as VDR inhibitor -26.7%.
For Cc1ccccc1OCC(=O)NC(=S)Nc1cccc2cc(O)ccc12 the results were VDR inhibitor 13.9%.
Nc1c(C(=O)Nc2ccc(F)cc2)sc2nc(-c3ccco3)ccc12 was read as VDR inhibitor -1.0%.
Cc1ccc2oc(=O)c3cc(C(=O)NCCCOC(C)C)sc3c2c1 was read as VDR inhibitor -1.8%.
`COc1cc2c(C#CCCCO)c(-c3ccsc3)oc(=O)c2cc1OC` gave VDR inhibitor -6.6%.
`COCCCNC(=S)NNC(=O)c1ccc2c(c1)OCO2` gave VDR inhibitor -3.8%.
CSCC[C@H](NC(=O)[C@@H]1Cc2ccccc2CN1)C(=O)Nc1ccc2c(c1)OCCO2 was read as VDR inhibitor 3.6%.
`N#C/C(=C/C1=C(N2CCOCC2)C(=C/c2ccc(Cl)cc2Cl)/CC1)C(=O)Nc1ccccc1F` gave VDR inhibitor -1.3%.
For CCOc1ccc(N)c(SSc2cc(OCC)ccc2N)c1 the results were VDR inhibitor 10µM*.
For CCCCOC(=O)Nc1cccc(C(C)=O)c1 the results were VDR inhibitor -3.3%.
For COc1nc(N)nc2c1ncn2C1OC(CO)CC1O (stereo not drawn) the results were VDR inhibitor -14.4%.
For O=C(Cc1ccccc1)NNC(=S)Nc1ccc(Cl)cc1 the results were VDR inhibitor -16.6%.
For Oc1c(Cl)cc(Cl)cc1C=Nc1cc(C(F)(F)F)ccc1N1CCc2ccccc2C1 the results were VDR inhibitor -1.2%.
`Cc1cccc(N2CCN(CC(O)COc3ccc(Cl)cc3)CC2)c1` (stereo not drawn) gave VDR inhibitor -13.8%.
For O=C(Nc1ccc(Cl)cc1)C1CCCN(c2cnccn2)C1 (stereo not drawn) the results were VDR inhibitor -8.6%.
Cc1nnsc1SC(C)C(=O)O (stereo not drawn) was read as VDR inhibitor 6.6%.
For C=CCN(CC=C)C(=S)NC(=O)c1ccc(C)c(Br)c1 the results were VDR inhibitor -3.2%.
Screening O=c1c2cc3c(cc2nc2sc(Nc4ccc(F)c(Cl)c4)nn12)OCO3 returned VDR inhibitor 12.4%.

Four entries drawn at random from those above:
For CCCCOC(=O)Nc1cccc(C(C)=O)c1 the results were VDR inhibitor -3.3%.
`Cc1cccc(N2CCN(CC(O)COc3ccc(Cl)cc3)CC2)c1` (stereo not drawn) gave VDR inhibitor -13.8%.
Cc1nnsc1SC(C)C(=O)O (stereo not drawn) was read as VDR inhibitor 6.6%.
For C=CCN(CC=C)C(=S)NC(=O)c1ccc(C)c(Br)c1 the results were VDR inhibitor -3.2%.

(cont.)
Screening CCCN(C(=O)CCn1cnc2onc(-c3ccc(F)cc3)c2c1=O)c1ccccc1C returned VDR inhibitor 10.2%.
Screening COc1ccc(OC)c(-n2c(SCC(=O)Nc3cc(C)on3)nnc2-c2c[nH]c3ccccc23)c1 returned VDR inhibitor -1.0%.
`CCC(=O)N1CCc2cc(S(=O)(=O)NCCC(=O)NC(C)c3ccccc3)ccc21` (stereo not drawn) gave VDR inhibitor -23.4%.
For NC(=O)C1CCN(C(=O)c2cccc(S(=O)(=O)N3CCc4ccccc4C3)c2)CC1 the results were VDR inhibitor -15.1%.

Some of the compounds tested; rates above refer to the full screens.
